# AID923: qHTS Assay for Allosteric/Competitive Inhibitors of Caspase-1: Spectroscopic Profiling in AFC Spectral Region. compound fluorescence, AFC spectral region (405/520 nm); almost no hit is shown here. Potency, µM (top dose mostly 57.5 µM), without a hit: at the top dose fluorescence increase, most hits filed as activators. hit rate 1.1% among 75,000. AID 923, 2007; active = well fitted activation curve with a large enough effect; inconclusive = small, poorly fitted or top-dose-only effect;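 also: potency is read from the fitted curve at half-maximal effect; 0% is about no effect; scaled to a free AFC standard on each plate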
#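 Compound autofluorescence profiled at 405 nm ex/520 nm em during kinetic caspase 1 run (50 nM enzyme, 5 uM Ac-WEHD-AFC, HEPES pH 7.5, 10 mM DTT). Titration up to 57 uM; baseline from regression intercept, normalized to AFC standard curve.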
# A647 autofl: compound autofluorescence in A647 spectral region; Compound fluorescence, A647 channel (570/671 nm), Tris buffer; max dye-equivalent concentration, M; 59,000 tested, under 10 active; active means above 1 µM dye equivalent; inconclusive means 0.1 to 1 µM; inactive means 0.1 µM or less;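 also: values scaled relative to a standard on each plate; highest value over a series up to 38 µM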
#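 Spectral profiling of library compounds in pH 8.0 Tris: 15 min room-temperature incubation, single ex/em pair (570/671 nm), response normalized to Alexa 647 equivalents.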
# TSHR agonist: agonists of human thyroid stimulating hormone receptor | AID 926 | Potency, µM (titrated, usually from 57.1 µM), for the others: top-dose activation, usual class: activators | HEK293-CNG-TSHR cells (CNG channel as cAMP sensor), membrane potential dye, cAMP | hit rate 0.48% among 73,000 | P16473; active = well fitted activation curve of enough size with the parental cells flat; inconclusive = any curve in the parental cells; inactive = parental cells flat and receptor cells flat or falling; also: potency is read from the fitted curve at half-maximal effect; % of control where 0% means no effect; weak receptor curves with flat parental cells got no call and are not listed
# Target sequence (P16473 whole entry, looked up): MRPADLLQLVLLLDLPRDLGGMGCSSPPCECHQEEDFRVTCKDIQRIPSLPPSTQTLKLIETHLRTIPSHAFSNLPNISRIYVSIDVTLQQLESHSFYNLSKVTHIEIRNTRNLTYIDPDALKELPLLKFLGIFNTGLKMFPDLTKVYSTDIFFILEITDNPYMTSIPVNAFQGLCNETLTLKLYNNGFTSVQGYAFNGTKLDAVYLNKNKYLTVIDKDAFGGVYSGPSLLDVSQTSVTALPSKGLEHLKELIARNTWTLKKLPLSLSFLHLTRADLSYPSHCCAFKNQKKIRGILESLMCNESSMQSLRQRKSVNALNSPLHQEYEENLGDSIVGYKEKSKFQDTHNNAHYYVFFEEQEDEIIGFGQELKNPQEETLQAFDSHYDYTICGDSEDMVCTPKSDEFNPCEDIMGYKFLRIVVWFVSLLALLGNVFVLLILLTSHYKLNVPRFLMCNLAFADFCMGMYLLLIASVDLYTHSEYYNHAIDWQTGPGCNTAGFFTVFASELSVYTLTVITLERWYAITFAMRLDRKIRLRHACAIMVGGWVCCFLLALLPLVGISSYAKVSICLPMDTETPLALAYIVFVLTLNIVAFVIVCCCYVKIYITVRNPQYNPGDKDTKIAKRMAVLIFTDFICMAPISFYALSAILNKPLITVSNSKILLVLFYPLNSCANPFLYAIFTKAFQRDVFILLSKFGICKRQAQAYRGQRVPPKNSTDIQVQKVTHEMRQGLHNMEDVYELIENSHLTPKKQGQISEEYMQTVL
#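 HEK 293 cells stably expressing TSHR and a modified CNG channel, with CNG-only parental cells as counterscreen, were preloaded 60 min at room temperature with membrane potential dye containing 100 uM RO 20-1724. Compound exposure was 30 min, and depolarization was read as fluorescence at 590 nm.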
# Resorufin autofl: compounds fluorescent in resorufin spectral region. hit rate 0.04% among 59,000. AID 588. Compound fluorescence, resorufin region 547/598 nm, buffer; hits give high values. max dye-equivalent concentration, M; active = above 10 nM dye equivalent; inconclusive = 1 to 10 nM; inactive = 1 nM or less; a few of its hits are not listed in these tables; also: highest value over a series up to 38 µM
#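 Intrinsic fluorescence profiled in the resorufin window (ex 547 nm, em 598 nm) after 15 min at room temperature in pH 8.0 Tris buffer (100 mM); responses normalized against a six-point resorufin standard series as dye-equivalent concentration.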
# A488 fluor: compound autofluorescence in A488 spectral region; compound autofluorescence, A488 spectral region, dye equivalency; hits give high values; max dye equivalency, M; hit rate 0.1% among 59,000; AID 591; active = above 10 nM dye equivalent; inconclusive = 1 to 10 nM; inactive = 1 nM or less; about half of its hits are not listed in these tables;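 also: highest value over a series up to 38 µM; compound alone in buffer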
#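 Read-out: relative fluorescence at 480/540 nm, expressed as Alexa 488 dye-equivalent concentration from a six-point A488 standard included per plate. Conditions: 100 mM Tris, pH 8.0; 15 min incubation, room temperature.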
# Active calls of the source: *; i = inactive; ? = inconclusive; nt = not tested or not shown; [ ] = another dose, or the depositor's remark. Not all compounds are listed. The share of hits here may be higher or lower than overall.
# Results follow in this order: AID923, A647 autofl, TSHR agonist, Resorufin autofl, A488 fluor
- Cc1ccc(S(=O)(=O)N(C)Cc2ccc(-c3nnco3)cc2)cc1
  1.5%, 1.6e-09, ?, i, i
- CCOC(=O)N1CCN(C(=O)CCC(=O)N2CCOc3ccc(C)cc32)CC1
  0.6%, 4.5e-09, -5.6%, i, i
- CCOC(=O)C1=C(C)NC(=O)NC1c1c(OCC(=O)N2CCCCC2)ccc2ccccc12 (stereo not drawn)
  -0.2%, 1.9e-09, 5.5%, i, i
- C=CCc1ccccc1OCC(O)CNC (stereo not drawn)
  -0.2%, 4.09e-08, 6.9%, i, i
- CC(C)NC(=O)[C@@H]1C[C@@]1(C)[C@@H](NC(=O)OCc1ccccc1)c1ccccc1
  0.8%, nt, ?, nt, nt
- CC(CN1CCOCC1)OC(=O)COc1ccc(F)cc1 (stereo not drawn)
  -0.9%, 1e-09, 4.9%, i, i
- N#C/C(C(=O)NCc1ccccc1)=C1\SC(CCO)C(=O)N1c1ccccc1 (stereo not drawn)
  nt, 5.1e-09, nt, i, i
- CC(CNC(=O)c1ccc(Br)o1)NC(=O)c1ccc(Br)o1 (stereo not drawn)
  3.8%, nt, 5.0%, nt, nt
- Cc1ccc(C(=O)CNc2nc3c(c(=O)[nH]c(=O)n3C)n2Cc2ccccc2)cc1
  -2.5%, 5.9e-09, 0.9%, i, i
- COc1cc2c3c(c1)C1(C(=O)N3C(C)(C)C=C2C)C(C#N)=C(N)Oc2cc(C)oc(=O)c21 (stereo not drawn)
  -2.1%, 1.89e-08, -4.6%, i, i
- CC1(C)CC(NC(=O)c2ccccc2Cl)CC(C)(C)N1
  0.8%, 1e-09, 2.4%, i, i
- COc1ccc(OC)c(NC(=O)C2CC(=O)N(c3ccccc3)C2)c1 (stereo not drawn)
  -0.3%, 1e-09, nt, i, i
- Nc1ccccc1SCc1csc(-c2ccc(Cl)cc2)n1
  -0.2%[11.5 µM], 1.32e-08, 5.4%[11.4 µM], i, i
- COC(=O)c1cccc(NC(=O)NC2CCCN2S(=O)(=O)c2ccc(Cl)cc2)c1 (stereo not drawn)
  -8.4%, 2.08e-08, nt, i, i
- O=C(c1ccco1)N1CCN(C(=O)C(Cc2ccccc2)NS(=O)(=O)c2cccs2)CC1 (stereo not drawn)
  -0.4%, 2.2e-08, 8.2%, i, i
- O=C(CSc1c[nH]c2ccccc12)N1CCOCC1
  0.9%, 6.2e-09, 6.3%, i, i
- COc1ccccc1NC(=O)CSc1nnc(COc2ccc(Cl)cc2)n1Cc1ccco1
  0.6%, 3.33e-08, ?, i, i
- Cc1nn(CC(=O)Nc2ccc(C(=O)N3CCCCC3)cc2)c(=O)c2ccccc12
  -2.6%, 2.6e-09, 10.4%, i, i
- COc1ccc(-n2nnc3c(SCC(=O)Nc4ccc5c(c4)OCCO5)ncnc32)cc1
  1.3%, nt, 20.2%, nt, nt
- Cc1occc1C(=O)Nc1sc2c(c1C(N)=O)CCCCC2
  0.7%, 1.12e-08, ?, i, i
- COc1ccc(C2CC(=O)c3cnc(NC(=O)c4ccccc4)nc3C2)c(OC)c1 (stereo not drawn)
  -1.6%, 1e-09, nt, i, i
- COCC(=O)N1CCC2(CC1)CCN(C(c1ccccc1)c1ccccc1)CC2
  0.6%, 1e-09, 7.3%, i, i
- COCCn1c(=O)c(-c2ccc(Cl)cc2)nc2cnc(Oc3ccc(OC)cc3)nc21
  11.3%, 2.5e-09, 7.0%, i, i
- COc1ccc(OC2C=CC(c3ccccc3)OC2CO)c(C(C)=O)c1 (stereo not drawn)
  -2.8%[11.5 µM], nt, -5.8%[11.4 µM], nt, nt
- COc1cc(OC)c(C2C(C(=O)Nc3ccc(C)cc3C)=C(C)Nc3ncnn32)cc1OC (stereo not drawn)
  -2.4%, 1.16e-08, 0.5%, i, i
- Cc1ccc(CNC(=O)Cn2c(=O)oc3ccccc32)o1
  0.2%, 1e-09, 2.0%, i, i
- CCn1c(=O)n(CC(=O)NCc2ccco2)c(=O)c2ccccc21
  1.5%, 5.5e-09, -6.5%[11.4 µM], i, i
- CC(Oc1ccc(Cl)cc1Cl)C(=O)NCc1ccncc1 (stereo not drawn)
  -0.4%, nt, 27.6%, nt, nt
- Cc1[nH]nc2c1C(c1ccccc1)C1=C(CC(C)(C)CC1=O)N2 (stereo not drawn)
  -0.6%, 1.61e-08, ?, i, i
- O=C1CCc2cc(S(=O)(=O)NC(Cc3ccccc3)C(=O)NC3CCCCC3)ccc2N1 (stereo not drawn)
  -3.0%, nt, 11.4%, nt, nt
- O=S(=O)(NCc1ccco1)c1ccc2c(c1)Cc1ccccc1-2
  1.0%, 1e-09, 8.2%, i, i
- Cc1cccc(NC(=O)Cn2c(=O)n3nc(CCn4nc(C)cc4C)nc3c3ccccc32)c1
  -1.2%, 1.65e-08, 2.5%, i, i
- CCCS(=O)(=O)N1CCC(C(=O)NCCCN2CCCC2=O)CC1
  0.7%, 1e-09, -0.9%, i, i
- COCCn1c(=O)cnc2cnc(OC)nc21
  3.5%, 1.62e-08, 3.8%, i, i
- Cc1ccc(-n2c(=O)[nH]cc(C(=O)Nc3ccc4c(c3)OCCO4)c2=O)cc1
  0.5%, 1e-09, 13.7%, i, i
- O=C(CN1CCN(S(=O)(=O)c2ccc(F)cc2)CC1)Nc1ccccc1F
  -0.9%, 2.58e-08, -1.1%, i, i
- Cc1cccc(CNc2ncncc2-c2ccccc2CN(C)C)c1
  2.2%, 4.36e-08, 15.5%, i, i
- CC1(C)CC(=O)C2=C(C1)OC(N)=C(C#N)[C@@]21C(=O)N(CC(N)=O)c2ccccc21
  nt, 4.01e-08, nt, i, i
- Cc1nnc(SCCn2c(N3CCCCC3)nc3c2c(=O)n(C)c(=O)n3C)s1
  0.3%, 1.1e-08, 0.8%, i, i
- CCc1cc(C=C(Cl)Cl)oc(=O)c1C
  0.0%, nt, 13.9%, nt, nt
- CC(C)OC(=O)C1C2C=CC3(CN(Cc4cccs4)C(=O)C13)O2 (stereo not drawn)
  1.7%, 1e-09, -1.3%, i, i
- Cc1cc2ccccc2c[n+]1CC(O)C[n+]1cc2ccccc2cc1C
  0.9%[11.5 µM], 1.64e-08, -8.4%[11.4 µM], i, i
- Cc1ccc(N2C(=O)c3sc4nnc(C)c(=O)n4c3C2=O)cc1
  nt, 1e-09, nt, i, i
- N=C(N)c1ccccc1
  -1.2%, 1.4e-09, -17.5%, i, i
- Cc1nn(-c2ccccc2)c(Cl)c1C(=O)Nc1c(C)n(C)n(-c2ccccc2)c1=O
  -0.9%, 1e-09, -1.4%, i, i
- CCOC(=O)C1CCCN(c2nc3ccccc3nc2C(C#N)C(=O)OC(C)COC)C1 (stereo not drawn)
  nt, 4.7e-09, nt, i, i
- CCOc1ccc(/C=C\C(C)=N\O)cc1
  0.9%, nt, 2.0%, nt, nt
- Cc1nnc(N(C)C(=O)c2cccnc2)s1
  -1.3%, 6.8e-09, 0.6%, i, i
- CCCCN(C)C(=O)c1cn(CC)c2ccc(S(=O)(=O)N(C)C)cc2c1=O
  0.5%, nt, 1.9%, nt, nt
- COc1ccc(S(=O)(=O)Nc2c(C)ccc3nsnc23)cc1OC
  2.8%, 4.19e-08, 4.5%, i, i
- Cc1cc(C)n2nc(C(=O)Nc3ccc4c(c3)OCO4)nc2n1
  3.6%, 8.6e-09, -3.3%, i, i
- Cc1ccc2occ(C(c3nnnn3C3CCCC3)N3CCN(C(=O)c4ccco4)CC3)c(=O)c2c1 (stereo not drawn)
  -0.2%, 1e-09, 12.3%, i, i
- O=C(COC(=O)C1CC(=O)N(Cc2ccco2)C1)c1ccc(OC(=O)c2ccco2)cc1 (stereo not drawn)
  0.9%, 3.4e-09, ?, i, i
- CCc1cccc(CC)c1N(COC)C(=O)Cn1ccccc1=N
  -1.4%, 1e-09, 0.9%, i, i
- O=C(CN(Cc1ccco1)C(=O)CNS(=O)(=O)c1ccc(F)cc1)NCc1ccc(F)cc1
  0.7%, 1.18e-08, ?, i, i
- COc1cc(C(=O)OCn2nnc3ccccc3c2=O)cc(OC)c1OC
  -1.3%, 3.4e-09, 12.8%, i, i
- COc1cccc(Cn2c(=O)c(CCc3ccccc3)nc3cnc(N4CCNCC4)nc32)c1
  -0.3%, 1e-09, -2.2%, i, i
- N#Cc1nc(COc2ccccc2)oc1N1CCN(Cc2ccccc2)CC1
  -0.8%, 5.7e-09, ?, i, i
- CN(C)c1ncnc2ccc(-c3ccoc3)cc12
  4.5%, 1e-09, 17.1%, i, i
- O=C(NCCN1CCOCC1)c1ccc(-c2ccccc2)cc1
  1.3%, 1.03e-08, 6.9%, i, i

# Exported as labelled records: part of the list above.
O=S(=O)(NCc1ccco1)c1ccc2c(c1)Cc1ccccc1-2
  AID923: 1.0%
  A647 autofl: 1e-09
  TSHR agonist: 8.2%
  Resorufin autofl: i
  A488 fluor: i

Cc1cccc(NC(=O)Cn2c(=O)n3nc(CCn4nc(C)cc4C)nc3c3ccccc32)c1
  AID923: -1.2%
  A647 autofl: 1.65e-08
  TSHR agonist: 2.5%
  Resorufin autofl: i
  A488 fluor: i

# (continued)
# Results follow in this order: AID923, A647 autofl, TSHR agonist, Resorufin autofl, A488 fluor
- COCCNC(=O)C(C#N)c1nc2ccccc2nc1N1CCN(Cc2ccc3c(c2)OCO3)CC1 (stereo not drawn)
  nt, 1e-09, nt, i, i
- COc1cc(NC(=O)C2CCCCC2)c(OC)cc1NC(=O)CN1CCCCC1
  0.6%, 1e-09, 0.2%, i, i
- CC1C/C=C/C=C/C=C/C=C/C(O[C@@H]2O[C@H](C)[C@@H](O)[C@H](N)[C@@H]2O)CC2OC(O)(CC(O)CC3OC3/C=C/C(=O)O1)CC(O)C2C(=O)O (stereo partly drawn)
  nt, 1.6e-09, nt, i, i
- CC1(C)Cc2c(sc3c2c(=N)n(Cc2ccco2)c(=O)n3CC(=O)Nc2ccc(Cl)cc2)CO1
  2.3%, 1.99e-08, 6.1%, i, i
- CN(c1ccccc1C(=O)O)S(C)(=O)=O
  0.3%, 7.9e-09, -1.8%, i, i
- Cc1cccc(NC(=O)CSc2nc3c(c(=O)[nH]2)CCC3)c1C
  -1.0%, 3.92e-08, -2.7%[11.4 µM], i, i
- Cc1ccc(C(=O)C2=C(O)C(=O)N(CCCN(C)C)C23C(=O)N(C)c2ccccc23)o1 (stereo not drawn)
  0.3%, 3.8e-09, -0.6%, i, i
- O=c1cc(N2CCC(Cc3ccccc3)CC2)[nH]c(=O)n1C1CCCCC1
  -1.1%, 1.77e-08, 6.8%, i, i
- O=S(=O)(CCSc1ccccn1)c1nc2ccccc2s1
  0.5%, 2.31e-08, 4.8%, i, i
- CCOCCCNC(=O)C1CCCCN1S(=O)(=O)c1ccc(F)cc1 (stereo not drawn)
  1.3%, 3.36e-08, 10.3%, i, i
- CNCCOCC(O)CSc1ccccc1 (stereo not drawn)
  3.5%, nt, -8.2%, nt, nt
- COc1ccccc1CNc1ncncc1-c1ccoc1
  -0.5%, 4.5e-09, 8.0%, i, i
- CCSCCOC(=O)C1=C(C)NC(=O)NC1c1cc(OC)ccc1OC (stereo not drawn)
  4.9%, nt, 11.8%, nt, nt
- CCCC(c1c(C)n(C)n(-c2ccccc2)c1=O)c1c(C)n(C)n(-c2ccccc2)c1=O
  1.3%, nt, 5.3%, nt, nt
- CC(=O)N1CCN(CCN=CC2=C(O)CC(c3cccs3)CC2=O)CC1 (stereo not drawn)
  3.0%, nt, 1.4%, nt, nt
- CCCc1cc(=O)n2[nH]c(C)c(-c3ccccc3)c2n1
  -0.1%, 5.7e-09, ?, i, i
- COCCNC(=O)C(c1ccc(C)o1)N(Cc1cccs1)C(=O)c1snc(C(N)=O)c1N (stereo not drawn)
  3.8%, 1e-09, nt, i, i
- O=C(CN1CCN(S(=O)(=O)c2ccc(F)cc2)CC1)Nc1cccc(C(F)(F)F)c1
  -1.8%, 2.62e-08, nt, i, i

# Bioassay records as filed in PubChem BioAssay.
